# Screens (PubChem)
# SARS PLpro yeast = qHTS of Yeast-based Assay for SARS-CoV PLP | Potency, µM (top dose mostly 32.9 µM), for the others: at the highest dose activity, positive = growth rescue | S. cerevisiae expressing SARS-CoV PLpro, growth rescue; control for the full effect not named in the record | AID 485353, 2010 | actives 0.19% (n = 330,000); note: 0% is about no effect; nearly all actives have a fitted effect of over 55% in size; growth read by luminescence after 48 h
# StopGo reporter = High Throughput Screening for Foot and Mouth Disease Virus Antivirals. human cells with a luciferase reporter of 2A StopGo recoding; control for the full effect not named in the record. Potency, µM (doses to about 57.9 µM), without a hit: at the highest dose signal change, negative = less light. actives 1.2% (n = 410,000). AID 1159524, 2015; active = well fitted falling curve with a large enough effect; inconclusive = small, poorly fitted or top-dose-only effect; inactive = no such curve, though single readings can be large or run the other way; tested in HEK293T cells; note: % is set by controls: 0 for no effect and ±100 for the full control effect; nearly all actives have a fitted effect of over 45% in size; luciferase light after 4 h
# NS1 function inh = qHTS Assay for Inhibitors of Influenza NS1 Protein Function; S. cerevisiae slowed by influenza A NS1, growth recovery by OD600; Potency, µM (highest dose often 46.1 µM), for inactives: top-dose activity, positive = more growth; actives 0.4% (n = 270,000); note: actives are rising curves; nearly all actives have a fitted effect of over 50% in size
#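 Growth recovery, yeast-based: influenza A NS1 expressed in S. cerevisiae causes slow growth, and suppressors are detected by OD600. The parent strain without NS1 is used as positive control.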
# Cruzain Triton = qHTS Assay for Promiscuous and Specific Inhibitors of Cruzain (with detergent); purified cruzain, Z-FR-AMC fluorescence, 0.01% Triton; Cruzipain (Trypanosoma cruzi), P25779; AID 1478, 2009; actives 0.43% (n = 200,000); Potency, µM, without a hit: max response, negative = inhibition, hits mostly inhibitors; active = well fitted curve in the direction sought with a large enough effect; inconclusive = small, poorly fitted or top-dose-only effect, or another doubt; inactive = no such curve, though single readings can be large; an effect the other way counts as inactive or inconclusive;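 note: plate controls were neutral wells for no effect and buffer without enzyme for full effect; nearly all actives have a fitted effect of over 40% in size; top concentration of the series not given in the record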
# Target sequence (P25779 123-467 limits assumed): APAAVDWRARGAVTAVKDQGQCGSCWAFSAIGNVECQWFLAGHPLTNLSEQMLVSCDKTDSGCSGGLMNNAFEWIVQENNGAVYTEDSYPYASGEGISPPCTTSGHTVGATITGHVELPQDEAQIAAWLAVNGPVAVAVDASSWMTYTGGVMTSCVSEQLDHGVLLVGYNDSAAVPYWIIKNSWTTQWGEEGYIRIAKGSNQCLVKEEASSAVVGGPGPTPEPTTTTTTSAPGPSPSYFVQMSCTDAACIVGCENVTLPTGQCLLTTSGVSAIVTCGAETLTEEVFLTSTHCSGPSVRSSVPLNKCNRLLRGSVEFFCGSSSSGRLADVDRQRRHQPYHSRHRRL
#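 Read-out: AMC fluorescence (360 nm excitation, 450 nm emission), four reads over 2 min, first-to-third difference used. Conditions: cruzain 1.5 nM, Z-FR-AMC 2 uM, pH 5.5 acetate, 5 mM DTT, 0.01% Triton X-100.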
# MARV entry inh = qHTS for inhibitors of binding or entry into cells for Marburg Virus | Marburg virus pseudotyped entry inhibition, cell reporter; control for the full effect not named in the record; about a third of the inactives were read at about 46 µM | Potency, µM (titrated, usually from 37.8 µM), for the others: top-dose activity change, negative = inhibition, most hits filed as inhibitors | actives 1.8% (n = 300,000) | AID 540276, 2011; active = well fitted inhibition curve with a large enough effect; inconclusive = small, poorly fitted or top-dose-only effect, or effect the other way; inactive = flat fitted curve, though single readings scatter; tested in HEK293 cells; about a fifth of its hits are not listed in these tables; note: % is set by controls: 0 for no effect and ±100 for the full control effect; luciferase read-out
# Cruzain inh noDet = qHTS Assay for Promiscuous and Specific Inhibitors of Cruzain (without detergent). Cruzipain (Trypanosoma cruzi), P25779. purified cruzain, Z-FR-AMC fluorescence, no detergent. Potency, µM, without a hit: max response, negative = inhibition, usual class: inhibitors. actives 2.3% (n = 200,000); active = well fitted curve in the direction sought with a large enough effect; inconclusive = small, poorly fitted or top-dose-only effect, or another doubt; inactive = no such curve, though single readings can be large; an effect the other way counts as inactive or inconclusive;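 note: plate controls were enzyme without inhibitor for no effect and buffer without enzyme for full effect; nearly all actives have a fitted effect of over 40% in size; top concentration of the series not given in the record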
#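 Purified cruzain at 1.5 nM, pre-incubated 15 min with compound at room temperature in 100 mM sodium acetate pH 5.5, 5 mM DTT, 0.00005% Triton X-100. Reaction started with 2 uM Z-FR-AMC; AMC fluorescence increase over 60 s gives rate.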
# Lassa entry inh = qHTS for Inhibitors of binding or entry into cells for Lassa Virus; Potency, µM (top dose mostly 37.9 µM), inactives show at the top dose activity change, negative = inhibition, most hits filed as inhibitors; AID 540256, 2011; actives 1.2% (n = 300,000); Lassa virus pseudotype entry inhibition, cell reporter; control for the full effect not named in the record; active means well fitted inhibition curve with a large enough effect; inconclusive means small, poorly fitted or top-dose-only effect, or effect the other way; inactive means flat fitted curve, though single readings scatter; tested in HEK293 cells; note: % is set by controls: 0 for no effect and ±100 for the full control effect; nearly all actives have a fitted effect of over 50% in size; luciferase read-out
# RE007 growth inh = qHTS Assay for Inhibitors of the HIV-1 protein Vpr. S. pombe RE007 Vpr strain, BacTiter-Glo ATP luminescence, 24 h; control for the full effect not named in the record. Potency, µM (top dose mostly 92.2 µM), inactives show at the highest dose activity change, negative = less growth. actives 0.21% (n = 360,000). AID 651644, 2012; active = well fitted falling curve with a large enough effect; inconclusive = small, poorly fitted or top-dose-only effect; inactive = no such curve, though single readings can be large or run the other way;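 note: % is set by controls: 0 for no effect and ±100 for the full control effect; nearly all actives have a fitted effect of over 50% in size; the assay follows cell death caused by Vpr and the record does not say whether a fall means rescue or toxicity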
#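 Fission yeast strain RE007, carrying one chromosomally integrated HIV-1 vpr copy, was seeded at OD 0.01 in PMG+AL medium with 23 nL pinned compound. After 24 h at 30 °C and 99% humidity, viability was read by BacTiter-Glo luminescence.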
# Starred values were filed as active, the others as inactive; ? = inconclusive; nt = not tested or not shown; & = joins results of further samples; [ ] = dose if it differs, or a comment. Unless noted, calls come from the whole dose curve; as a rule, active means well fitted rising curve with a large enough effect; inconclusive means small, poorly fitted or top-dose-only effect; inactive means no such curve, though single readings can be large or run the other way. Potency is the fitted concentration of half-maximal effect.
SMILES,SARS PLpro yeast,StopGo reporter,NS1 function inh,Cruzain Triton,MARV entry inh,Cruzain inh noDet,Lassa entry inh,RE007 growth inh
COc1ccc(OC(=O)c2cccc(S(=O)(=O)N3CC(C)OC(C)C3)c2)cc1 (centres undefined),0%,0%,nt,nt,?,nt,-6%,20%
CN1CCN(c2ccc(NC(=O)C(C)(C)C)cc2)CC1,4%,19%,-6%,1.4%,26%[46.1 µM],-4%,2%,-3%
C[C@]12CCC(=O)C=C1CC[C@@H]1[C@@H]2CC[C@@]2(C)[C@H]1CC[C@@]21CCC(=O)O1,-4%,?,0%,nt,nt,nt,nt,9%
CC(=O)c1ccc(S(=O)(=O)NC2CC2)cc1,1%,3%,7%,nt,9%[46.1 µM],nt,-5%[46.1 µM],1%
Cc1ccc(CNC(=O)C(=O)NCC2OCCCN2S(=O)(=O)c2cccs2)cc1 (centres undefined),-6%,-12%,3%,nt,2%,nt,-3%,-4%
CCN(CC)S(=O)(=O)c1ccc2c(c1)nc(CCC(=O)O)n2CC,2%,-2%,nt,nt,1%[14.2 µM],nt,10%,2%
CC(=O)Oc1cc2oc(=O)cc(C)c2cc1OC(C)=O,3%,-4%,?,?,?,?,1%,-15%
COc1ccc(OC)c(C2C(C#N)=C(N)N(N(C)C)C3=C2C(=O)CCC3)c1 (centres undefined),9%,-11%,1%,nt,-1%[46.1 µM],nt,-16%[46.1 µM],-17%
COc1ccc(CCNC(=O)c2cnc3ccc(C)cn3c2=O)cc1OC,nt,-24%,nt,-6.6%,2%[46.1 µM],-7%,nt,nt
Cc1ccccc1C(OCC(O)CN1CCCCC1CCO)c1ccccc1 (centres undefined),2%,-3%,4.5µM*,6.0%,?,-1%,-29%,-7%
COc1ccc(C(=O)O/N=C(\N)Cc2ccc(Cl)c(Cl)c2)cc1OC,-105%,?,-24%,-15%,?,8%,?,?
Cc1cc(C)cc(CSCC(=O)NN=C2CCCCCC2)c1,9%,-8%,?,-1.1%,1%,-14%,-12%,11%
CCOC(=O)c1cc(CC)sc1NC(=O)COc1ccccc1C,nt,-4%,nt,8.9%,nt,-5%,17%[46.1 µM],nt
CCN(CC)S(=O)(=O)c1ccc(N2CCOCC2)c(NC(=O)c2cc(C)cc(C)c2)c1,-15%,-10%,19%,-7.3%,-20%,?,-22%,-5%
Cc1cc2oc(=O)cc(C)c2cc1NC(=O)CCl,17%,?,7%,nt,?,nt,?,33%
O=[N+]([O-])c1cc(/C=N/O)ccc1Sc1ccccc1,-64%,?,-39%,-7.1%,-28%,-18%,-6%,?
c1cncc(-c2noc(-c3ccc4ccccc4c3)n2)c1,0%,48%[activator],-11%,nt,nt,nt,nt,0%
Cn1cnnc1SCC(=O)N(Cc1ccc2c(c1)OCO2)C1(C(=O)NC2CCCCC2)CCCC1,-6%,15%,-6%,0.7%,18%,16%,-23%,5%
CCOC(=O)CSc1nnc2n(Cc3ccccc3)c(=O)c3c4c(sc3n12)CCC4,-1%,-22%,1%,-2.7%,-14%&-14%,?,?,7%
CCOCCCNC(=O)C1CC(=O)N(C2CCCC2)C1 (centres undefined),0%,-17%,1%,6.7%,8%,-4%,4%,11%
CC(C)C[C@@H](COc1ccccc1)N1CCN(CC(C)C)CCC1=O,-1%,4%,1%,nt,nt,nt,nt,-6%
Cn1c(Cn2nnc3ccccc32)nnc1SCC(=O)NCc1ccc2c(c1)OCO2,0%,5%,2%,-0.7%,6%&1%,11%,3%,8%
CC(=O)Nc1nnc(-c2ccccn2)o1,2%,7%,-1%,1.8%,-3%,0%,11%,6%
CCC1Oc2ccccc2N(CC(=O)NCCN2C(C)CCCC2C)C1=O (centres undefined),-2%,nt,-15%,1.7%,-3%,-7%,0%,-8%
CCN1CCCC1CNC(=O)C(=O)Nc1ccc(OC)cc1 (centres undefined),-4%,nt,14%,6.1%,16%,5%,-23%,-4%
COCCNC(=S)N1CCc2cc(OC)c(OC)cc2C1COc1cc(C)cc(C)c1 (centres undefined),13%,-14%,7%,-4.9%,7.9µM*,?,-1%,-6%
Cc1cc(C)c(C(=O)/C=C/c2cccc3ccccc23)c(=O)[nH]1,7%,?,2%,-6.3%,?,-8%,6.3µM*,12%
CCc1cccc(-n2c(=O)c3cccnc3n2CC(=O)Nc2ccc(OC)c(Cl)c2)c1,nt,-27%,nt,-1.2%,nt,25µM*,12%[46.1 µM],nt
CN(c1ccccc1C(=O)Nc1cccc([N+](=O)[O-])c1)S(=O)(=O)c1ccccc1,-8%,-23%,-7%,nt,nt,nt,nt,4%
COc1ccc(-n2c(CSc3nc(C)cc(C)n3)nnc2SCC(=O)Nc2nccs2)cc1,1%,-10%,-2%,1.8%,-13%&-13%,-7%,-7%,22%
Cc1ccccc1C(=O)Nc1ccccc1C(=O)N1CCC(C)CC1,0%,-2%,6%,nt,-13%[46.1 µM],nt,-20%[46.1 µM],8%
Cc1cc(=O)oc2cc(OS(C)(=O)=O)ccc12,-3%&-18%,-13%,-3%&-4%,-5.0%,?,5%,-2%&4%,-16%
COc1ccc(-c2nc(CS(=O)CC(=O)NC(C)CCc3ccccc3)c(C)o2)cc1OC (centres undefined),-3%,-22%,-7%,nt,nt,nt,nt,2%
CCCCCSc1nc2c(cnn2-c2ccc(F)cc2)c(=O)[nH]1,1%,-18%,-1%,nt,?,nt,29%[46.1 µM],5%
COc1cc(/C=N/NC(=O)c2ccc(N(C)S(=O)(=O)c3ccccc3)cc2)cc(OC)c1OC,-24%,0%,1%,-14%,-23%,?,16%,nt
CN1C(=O)c2ccccc2C(O)c2ccccc21 (centres undefined),nt,2%,nt,nt,-3%[46.1 µM],nt,-1%[46.1 µM],-13%
COc1ccc(OC)c(C2CC(=O)c3c([nH]c(C(=O)OC4CCC(C)CC4)c3C)C2)c1 (centres undefined),nt,-23%,nt,-0.8%,?,-14%,-16%[46.1 µM],nt
O=C(Nc1ncc2c(n1)CC(c1ccco1)CC2=O)c1ccccc1 (centres undefined),1%,32%[activator],3%,2.2%,?,-7%,17%,0%
O=C1CC(NCc2ccncc2)C(=O)N1c1ccc(Cl)cc1 (centres undefined),-9%,-20%,6%,3.7%,16%,2%,15%,3%
Cc1ccccc1OCc1nnc(SC(C)C(=O)O)n1Cc1ccccc1 (centres undefined),0%,-3%,7%,nt,23%[46.1 µM],nt,0%[46.1 µM],-5%
CC(C)Sc1cc(N2CCOCC2)nc(-c2ccccc2)n1,-2%,?,-8%,-4.9%,-24%,-8%,2%,8%
CCCOc1ccccc1C(=O)N1CCNC(=O)C1CC(=O)OC(C)C (centres undefined),3%,6%,25%,nt,-12%,nt,-16%,11%
CCC(=O)N1CCN(CCN=CC2=C(O)CC(c3cccs3)CC2=O)CC1 (centres undefined),-3%,nt,-7%,2.5%,-1%,5%,2%,-3%
CCOC(=O)c1c(NC(=O)C(C)Sc2nnc(C)c(=O)[nH]2)sc2c1CCCC2 (centres undefined),-14%,23%,1%,nt,-6%[46.1 µM],nt,3%,7%
Cc1cccc(C(=O)c2cccc(C)c2)c1,8%,12%,nt,nt,6%,nt,17%,-12%
CCC(C)c1ccc(NC(=O)CSc2nncn2N)cc1 (centres undefined),-7%,31%[activator],7%,-1.0%,2%,4%,-2%,-11%
O=C(Nc1ccccn1)c1ccc(Br)c(S(=O)(=O)N2CCCC2)c1,-7%,-25%,-17%,nt,0%,nt,10%,4%
Cc1ccc(-n2nnc3c(=O)n(CC(=O)c4ccccc4)cnc32)cc1,-6%,-5%,11%,0.5%,nt,?,nt,-12%
Cc1ccc(-c2cc(C(=O)O)n[nH]2)o1,0%,-10%,-6%,0.0%,8%,1%,?,4%
Oc1cccc(/C=N/Nc2ncnc3c2ncn3Cc2ccccc2)c1,-17%,2%,10%,-12%,?,-25%,-14%,12%
Cc1cc(C)cc(NC(=O)N2CCC(N3CCN(Cc4ccccc4)C(=O)C3=O)CC2)c1,nt,-9%,nt,1.3%,nt,20%,-5%[46.1 µM],nt
COc1ccc(C)cc1N(CC(=O)NC1CCCC1)C(=O)Cn1nnc(-c2ccc(C)o2)n1,6%,21%,11%,nt,-12%,nt,-20%,0%
COc1ccc(CCc2nc(C)ccc2O)cc1,25%&-6%,17%&24%,-4%&-1%,-1.4%&-1.4%,8%&3%,2%&-5%,5%&2%,-23%&-8%
Cc1cc(Cl)ccc1OCC(=O)NCC(=O)N/N=C/c1ccco1,0%,3%,6%,nt,17%[46.1 µM],nt,7%,-2%
CCn1c(O)c(C=Nc2cc(Cl)ccc2Cl)c(=O)n(CC)c1=O,22%,2%,14%,-6.7%,3%,?,-1%,18%
Cn1c(SCC(=O)NCCNC(=O)CSc2nnc(C(F)(F)F)n2C)nnc1C(F)(F)F,0%,-21%,2%,3.8%,8%,5%,?,8%
COc1cc(/C=N/NS(=O)(=O)c2ccc(Br)cc2)ccc1O,-1%,5%,0%,nt,nt,nt,nt,-1%
CCN(CC)CCSc1nnc2c3cc(C)ccc3n(Cc3ccccc3)c2n1,-4%,-25%,-5%,nt,?,nt,?,18%
O=C(Nc1ccccc1N1CCN(C(=O)c2ccc(Cl)cc2)CC1)c1ccc2c(c1)OCO2,-16%,-9%,-62%,-2.1%,?,?,?,6%[3.69 µM]
O=C1NC(CCc2ccccc2)C(=O)N1CCOc1cccc(Br)c1 (centres undefined),9%,-1%,nt,nt,-14%,nt,7%,6%

# The order is random; 4.7% or so of the library scored in one or more.
